From PubChem
AID923 = qHTS Assay for Allosteric/Competitive Inhibitors of Caspase-1: Spectroscopic Profiling in AFC Spectral Region; compound fluorescence, AFC spectral region (405/520 nm); almost no hit is shown here; Potency, µM (top dose mostly 57.5 µM), for the others: at the highest dose fluorescence increase, usual class: activators; 75,000 tested, 1.1% active; AID 923, 2007; active means well fitted activation curve with a large enough effect; inconclusive means small, poorly fitted or top-dose-only effect;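 further: potency means the concentration at half of the fitted maximal effect; 0% is about no effect; scaled to a free AFC standard on each plate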
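Compound autofluorescence profiled at 405 nm ex/520 nm em during kinetic caspase 1 run (50 nM enzyme, 5 uM Ac-WEHD-AFC, HEPES pH 7.5, 10 mM DTT). Titration up to 57 uM; baseline from regression intercept, normalized to AFC standard curve.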
A647 fluor = qHTS Assay for Spectroscopic Profiling in A647 Spectral Region | Compound fluorescence, A647 channel (570/671 nm), Tris buffer | max dye-equivalent concentration, M | 59,000 tested, under 10 active; active means above 1 µM dye equivalent; inconclusive means 0.1 to 1 µM; inactive means 0.1 µM or less;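 further: values scaled relative to a standard on each plate; highest value over a series up to 38 µM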
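Each compound's intrinsic fluorescence at 570 nm excitation and 671 nm emission is measured across its concentration series in 100 mM Tris, pH 8.0, after 15 min at room temperature, and reported relative to an A647 curve.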
Resorufin autofl = qHTS Assay for Spectroscopic Profiling in Resorufin Spectral Region; Compound fluorescence, resorufin region 547/598 nm, buffer; active compounds read high; max dye-equivalent concentration, M; 59,000 tested, 0.04% active; AID 588, 2007; active = above 10 nM dye equivalent; inconclusive = 1 to 10 nM; inactive = 1 nM or less; a few of its hits are not listed in these tables; further: highest value over a series up to 38 µM
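Dye-equivalent concentration values derive from comparing each well's 547/598 nm fluorescence against resorufin standards included on every plate. Incubation was 15 min at room temperature in 100 mM Tris, pH 8.0.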
TSHR ag = qHTS Assay for Agonists of the Thyroid Stimulating Hormone Receptor; HEK293-CNG-TSHR cells (CNG channel as cAMP sensor), membrane potential dye, cAMP; Potency, µM (doses to about 57.1 µM), for the others: at the top dose activation, hits mostly activators; 73,000 tested, 0.48% active; active = well fitted activation curve of enough size with the parental cells flat; inconclusive = any curve in the parental cells; inactive = parental cells flat and receptor cells flat or falling; further: potency means the concentration at half of the fitted maximal effect; % of control where 0% means no effect; weak receptor curves with flat parental cells got no call and are not listed
Target sequence (P16473 whole entry, looked up): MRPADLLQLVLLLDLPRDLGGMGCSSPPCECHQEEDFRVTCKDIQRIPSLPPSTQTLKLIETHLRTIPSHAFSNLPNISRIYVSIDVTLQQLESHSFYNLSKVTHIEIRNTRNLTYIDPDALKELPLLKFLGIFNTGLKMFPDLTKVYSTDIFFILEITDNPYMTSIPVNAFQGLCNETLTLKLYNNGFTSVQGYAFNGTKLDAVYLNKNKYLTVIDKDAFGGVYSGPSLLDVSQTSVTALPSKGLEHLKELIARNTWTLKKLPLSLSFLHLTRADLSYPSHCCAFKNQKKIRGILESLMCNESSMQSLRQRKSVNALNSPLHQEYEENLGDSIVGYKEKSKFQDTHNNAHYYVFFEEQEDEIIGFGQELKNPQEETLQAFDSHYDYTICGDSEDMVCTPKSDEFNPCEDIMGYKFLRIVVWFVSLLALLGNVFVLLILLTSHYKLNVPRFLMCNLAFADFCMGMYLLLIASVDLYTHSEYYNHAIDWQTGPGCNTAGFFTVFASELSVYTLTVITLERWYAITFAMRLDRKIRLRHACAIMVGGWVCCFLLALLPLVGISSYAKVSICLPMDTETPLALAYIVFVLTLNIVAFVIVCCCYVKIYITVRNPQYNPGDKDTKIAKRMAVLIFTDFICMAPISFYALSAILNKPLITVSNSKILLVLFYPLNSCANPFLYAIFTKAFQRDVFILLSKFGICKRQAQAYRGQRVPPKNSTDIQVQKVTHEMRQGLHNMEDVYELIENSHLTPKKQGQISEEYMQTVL
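cAMP rise detected as CNG-channel membrane depolarization by fluorescent dye (emission 590 nm), 30 min after compound, following 60 min dye loading containing 100 uM RO 20-1724 at room temperature. Cells: TSHR/CNG HEK 293, with parental CNG HEK 293 as control.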
A488 fluor = qHTS Assay for Spectroscopic Profiling in A488 Spectral Region. compound autofluorescence, A488 spectral region, dye equivalency; active compounds read high. 59,000 tested, 0.1% active. AID 591, 2007. max dye equivalency, M; active = above 10 nM dye equivalent; inconclusive = 1 to 10 nM; inactive = 1 nM or less; about half of its hits are not listed in these tables;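 further: highest value over a series up to 38 µM; compound alone in buffer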
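Read-out: relative fluorescence at 480/540 nm, expressed as Alexa 488 dye-equivalent concentration from a six-point A488 standard included per plate. Conditions: 100 mM Tris, pH 8.0; 15 min incubation, room temperature.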
* = called active by the depositor; i = inactive; ? = inconclusive; . = no result given; [ ] = remark or other dose. Not all compounds are listed (hit frequency here may not be typical).

Compound	AID923	A647 fluor	Resorufin autofl	TSHR ag	A488 fluor
CCc1c(C)sc(NC(=O)c2cc(C)no2)c1C#N	0.0%	.	.	9.3%	.
O=C(c1ccc(Cn2c(=O)[nH]c3ccccc3c2=O)cc1)N1CCN(c2ccccc2)CC1	-2.1%	1.2e-09	i	4.6%	i
O=C(Nc1ccc2c(c1)OCO2)C1(S(=O)(=O)c2ccc(Cl)cc2)CC1	-0.3%	2.2e-09	i	2.0%	i
COc1ccccc1NC(=O)NC(N)=O	-1.2%	1e-09	i	-2.0%	i
Cc1nc(NC2CCCCC2)c2nc(-c3ccccc3)n(CCCN3CCOCC3)c2n1	-3.5%	.	.	?	.
N#Cc1c(N)oc(-c2ccc3c(c2)OCO3)c1-c1ccc2c(c1)OCO2	3.9%	5.4e-09	i	-8.2%	i
CSc1nc2cc(F)c(F)cc2n1C	0.8%	3.56e-08	i	19.3%	i
CCOC(=O)c1oc2nc(C(C)C)c3c(c2c1N)CC(C)(C)OC3	0.3%	3.81e-08	i	0.9%	i
COc1cc(OC)cc(C(=O)NCCNC(=O)c2ccccc2)c1	1.2%	2.6e-09	i	-8.6%	i
Nc1ccc2[nH]cc(CCC(=O)O)c2c1	0.9%[11.5 µM]	4e-09	i	13.0%[11.4 µM]	i
CCOC(=O)C1CCN(c2nnc(N3CCCC3=O)s2)CC1	-0.7%	.	.	0.7%	.
COCCNS(=O)(=O)c1cc(-c2nn(C)c(=O)c3ccccc23)ccc1C	-1.1%	1e-09	i	1.6%	i
CC(=O)Cc1nsc(NC(=O)c2cc(-c3cccc(C(F)(F)F)c3)oc2C)n1	-0.2%	2.83e-08	i	-1.8%	i
O=c1[nH]c(CN2CCN(CCO)CC2)nc2ccccc12	-2.6%	4.17e-08	i	-1.5%	i
CCNC(=O)C1CCCN1S(=O)(=O)c1ccc(OC)cc1 (stereo not drawn)	-0.6%	9.2e-09	i	2.1%	i
CCN1C(=Nc2ccc(Cl)cc2)SC/C1=C\C(=O)OC	0.8%	2.56e-08	i	?	i
O=C(CSc1ccc2nnc(-c3ccc(F)cc3)n2n1)NCc1ccco1	0.2%	3.3e-09	i	-0.4%[11.4 µM]	i
O=C(Cn1ccc2ccccc2c1=O)NCCC(=O)Nc1cccnc1	-0.8%	2.05e-08	i	-2.4%[11.4 µM]	i
CC1CCCN(c2ccc(C(=O)NCC3CCCO3)cn2)C1 (stereo not drawn)	0.4%	1.98e-08	i	0.4%	i
CC(NS(=O)(=O)c1ccc(F)cc1)C(c1cccs1)N1CCN(C)CC1 (stereo not drawn)	1.3%	2.4e-08	i	7.7%	i

2 successive entries out of the list so far, for reference:
Compound	AID923	A647 fluor	Resorufin autofl	TSHR ag	A488 fluor
CCc1c(C)sc(NC(=O)c2cc(C)no2)c1C#N	0.0%	.	.	9.3%	.
O=C(c1ccc(Cn2c(=O)[nH]c3ccccc3c2=O)cc1)N1CCN(c2ccccc2)CC1	-2.1%	1.2e-09	i	4.6%	i

Remaining list, next part.
Compound	AID923	A647 fluor	Resorufin autofl	TSHR ag	A488 fluor
COc1ccccc1Cn1c(=S)[nH]c2cc(C(=O)NCCN3CCOCC3)ccc2c1=O	0.6%	1e-09	i	-18.5%	i
CCN1C(=O)[C@H]2[C@H]3[C@H](O)[C@H](O)C/C(=N/O[C@@H]4O[C@H](COC(C)=O)[C@@H](OC(C)=O)[C@H](OC(C)=O)[C@H]4OC(C)=O)[C@@H]3CC[C@@H]2C1=O	-2.2%[11.5 µM]	.	.	0.0%[11.4 µM]	.
O=C(c1cc(C(F)(F)F)cc(C(F)(F)F)c1)N1CCC2(CCN(Cc3ccncc3)CC2)CC1	0.6%	1e-09	i	?	i
CC(C)(C)CC(=O)N1CCC(c2nc3c(nnn3Cc3c(F)cccc3Cl)c(=O)[nH]2)CC1	0.7%	9.6e-09	i	1.4%	i
Cn1c(=O)c2c(nc(OC/C=C/c3ccccc3)n2C)n(C)c1=O	3.4%	1e-09	i	27.2%	i
O=S1(=O)NC2CCCCCN2c2ccc(F)cc21 (stereo not drawn)	-1.0%	3.9e-09	i	3.7%	i
COc1ccc(CCC(=O)Nc2ccc3c(c2)OCCO3)cc1	3.7%	.	.	?	.
CCn1c(Cn2nnc(-c3ccccc3)n2)nnc1SCC(=O)N1CCOCC1	-1.8%	1.11e-08	i	0.5%	i
N#CCC(=O)N1CCCCCC1	0.9%	1e-09	i	2.2%	i
CN(C(=O)COc1ccccc1)c1nnc(-c2ccncc2)s1	1.3%	2.33e-08	i	-3.3%	i
C=CCn1c(CSc2nc3ccccc3s2)nnc1SCC(=O)NCc1ccco1	0.3%	.	.	19.3%	.
CC1(C)Cc2c(c(-c3ccccc3)nc(N3CCCC3)c2C(N)=O)CO1	.	1e-09	i	.	i
Cc1ccc(NC(=O)Nc2ccc3c(c2)N(C)C(=O)CS3)nc1	0.5%	5.45e-08	i	4.3%	i
CCCn1c(C)nc2c(Nc3ccccc3)nc(C)nc21	0.3%	.	.	-2.0%	.
Cc1ccc(-n2ncc3c(=O)[nH]c(SCC(=O)N4CCN(c5ccccc5)CC4)nc32)cc1	-0.6%	2.97e-08	i	?	i
CCOC(=O)c1ccc(Nc2cc(C)nc3nc(C)nn23)cc1	-2.1%	.	.	6.3%	.
CC(C)C(=O)Nc1ccc(NC(=O)c2cc3ccccc3o2)cc1	-2.6%	2.55e-08	i	4.8%	i
CC(=O)Nc1ccc(S(=O)(=O)N2CCSC2c2ccccc2)cc1 (stereo not drawn)	-1.3%	1e-09	i	-3.3%	i
O=C(CC1COc2ccccc2O1)NC1CCCCC1 (stereo not drawn)	0.5%	3.88e-08	i	?	i
Cc1ccc(C(C)C)c(OCCNc2nc3c(c(=O)n(C)c(=O)n3C)n2C)c1	.	4.87e-08	i	.	i

Looked up above:
In AID923, N#Cc1c(N)oc(-c2ccc3c(c2)OCO3)c1-c1ccc2c(c1)OCO2 reads 3.9%
In AID923, O=C(c1cc(C(F)(F)F)cc(C(F)(F)F)c1)N1CCC2(CCN(Cc3ccncc3)CC2)CC1 reads 0.6%
In AID923, O=S1(=O)NC2CCCCCN2c2ccc(F)cc21 (stereo not drawn) reads -1.0%

(next part)
Compound	AID923	A647 fluor	Resorufin autofl	TSHR ag	A488 fluor
Cc1ccc(-c2nnc3ccc(SCC(=O)N4CCCCC4)nn23)cc1	-0.6%	2.7e-09	i	-5.0%[11.4 µM]	i
CC1CCCCC1NC(=O)Cn1nnc(-c2ccc(Cl)cc2)n1 (stereo not drawn)	-0.2%	2.45e-08	i	?	i
Cc1cc(-c2ccccc2C(=O)O)on1	-0.2%	1.8e-08	i	.	i
CCC1Oc2ccc(C)cc2N(Cc2cccc(C)c2)C1=O (stereo not drawn)	-2.2%	7.5e-09	i	?	i
Cc1nn(-c2ccccc2)c2c1C(c1c(C)[nH]c(C#N)c1C)C(C#N)=C(N)O2 (stereo not drawn)	1.1%	3.4e-09	i	-1.8%	i
COCCN1Cc2cccc(C(=O)Nc3cccnc3)c2C1=O	-2.1%	1.31e-08	i	2.1%	i
O=C(CCc1ccccc1)Nc1ccc(NC(=O)c2ccco2)nc1	0.9%	1.5e-09	i	7.0%	i
O=C(NCCC1=CCCCC1)NC1CCCCC1	-0.5%	.	.	21.0%[11.4 µM]	.
CC(=O)NCCNc1ncnc2ccc(-c3ccccc3C#N)cc12	1.2%	3.1e-09	i	5.5%	i
Cc1ccc2nc3c(cc2c1)CN(Cc1ccco1)C(=NCC1CCCO1)S3 (stereo not drawn)	1.1%	1.29e-08	i	?	i
COc1ccc(CNCCNC(=O)c2nonc2N)cc1OC	-0.3%	1e-09	i	1.1%	i
COc1ccc(NC(=O)C2CCCN(S(=O)(=O)c3c(C)n[nH]c3C)C2)cc1 (stereo not drawn)	0.1%	1e-08	i	-2.9%	i
Cc1cccc(NC(=O)c2ccccc2Br)n1	0.3%	.	.	-7.1%	.
OCCN(Cc1ccccc1)CC1CC2C=CC1C2 (stereo not drawn)	1.1%	1.9e-09	i	11.8%	i
O=S(=O)(Cc1ccccc1Cl)Nc1ccccn1	-2.0%	2.62e-08	i	-5.8%	i
Cc1cc(Br)ccc1NC(=O)CCN1C(=O)c2ccncc2C1=O	0.0%	6.2e-09	i	-0.9%	i
Cc1nnc(SCC(=O)N2CCOCC2)n1C	-0.5%	.	.	?	.
CC(Sc1nc(N)cc(=O)[nH]1)C(=O)NC1CCCCC1 (stereo not drawn)	-0.9%	4.15e-08	i	8.0%	i
COC(=O)c1cc(NC2c3ccccc3C(=O)N2c2cccnc2)cc(C(=O)OC)c1 (stereo not drawn)	-2.1%	.	.	15.8µM*	.
Cc1nc2ccccc2c(=O)n1N	-1.3%	2.77e-08	i	1.2%	i
C=CCn1c(SCC(=O)O)nnc1-c1cccc(Cl)c1	-0.9%	1e-09	i	.	i
Cc1cc(NC(=O)Cn2cnc3c(cnn3C(C)(C)C)c2=O)no1	1.0%	1.24e-08	i	5.3%	i
Cc1cc(=O)oc(C)c1C(=O)N[C@@H]1CCCCNC1=O	.	2.16e-08	i	.	i
CCOC(=O)C1CCN(C(=O)c2cccnc2)CC1	0.1%	1e-09	i	0.0%	i
O=C(O)c1ccc2c3c(ncnc13)-c1ccccc1C2=O	0.0%	5.9e-09	i	0.4%	i
Cn1c(COc2ccccc2)nnc1SCC(=O)Nc1ccc2c(c1)OCO2	0.9%	.	.	?	.
COc1cccc(NC(=O)C2CCN(S(C)(=O)=O)CC2)c1	-0.2%	2.14e-08	i	4.6%	i
CCOC(=O)c1[nH]nc2c1C(=O)N(Cc1ccccc1)C2=O	0.8%	2.15e-08	i	1.0%	i
Cc1ncsc1CCSc1n[nH]c(=O)n1-c1ccccc1	0.4%	1.62e-08	i	8.1%	i
CSc1nc2ccc(NS(=O)(=O)c3ccc4c(c3)OCCO4)cc2s1	-4.2%	2.63e-08	i	?	i
O=C(Cn1nnc(-c2ccccc2)n1)c1ccccc1	-0.5%	4.44e-08	i	-7.6%	i
c1cncc(-c2nc(-c3ccco3)cs2)c1	2.6%	3.32e-08	i	-1.0%	i
CCCC(C(=O)NCc1ccco1)N(C(=O)CNS(=O)(=O)c1ccc(Cl)cc1)C1CCCC1 (stereo not drawn)	-0.8%	5.73e-08	i	-9.4%	i
CCCCn1c(=O)n(CC(=O)Nc2ccc(C)c(Cl)c2)c(=O)c2c1ncn2Cc1ccco1	0.4%	3.45e-08	i	0.8%	i
Cc1oc(-c2cccs2)nc1CS(=O)CC(=O)NCCCN1CC(C)CC(C)C1 (stereo not drawn)	2.9%	.	.	2.0%	.
CC(C)C(c1nnnn1Cc1ccccc1)N1CCC(C(N)=O)CC1 (stereo not drawn)	-0.8%	2.82e-08	i	4.1%	i
Cc1cc(Nc2ccccc2N2CCOCC2)n2ncnc2n1	-0.6%	2.16e-08	i	22.4%	i
Cc1ccc2c(CC(=O)OC(C)C(=O)NCc3ccc4c(c3)OCO4)coc2c1 (stereo not drawn)	0.1%	4.5e-09	i	?	i
Cc1cc(C(C)(C)C)oc1C(=O)N1CCN(C(=O)c2oc(C(C)(C)C)cc2C)CC1	-0.3%	2.07e-08	i	?	i
CN1CCN(c2nc3c(c(=O)[nH]c(=O)n3C)n2CCCSc2ncccn2)CC1	-1.0%	3.11e-08	i	10.9%	i
CCn1c(NC(=O)c2cccs2)nc2ccccc21	-1.4%	5.6e-09	i	?	i
COc1cc(NC(=O)c2cc3sccc3n2C)cc(OC)c1	7.2%	2.6e-09	i	?	i
CCC(C)[C@H](N)c1nnc(SCc2cccc(F)c2)o1 (stereo partly drawn)	-0.6%	1e-09	i	8.5%	i
